Source: PubChem BioAssay (ICCB-Longwood Screening Facility, Harvard Medical School)
RVFV N-RNA FP = inhibitors of RVFV nucleoprotein–RNA binding, primary screen, biochemical, fluorescence polarization; % bound, % (no concentration beside the values); hit rate 0.1% among 20,000; P21700; RVFV N-RNA binding; active compounds read low;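 active = between 0 and 58% in either replicate with normal brightness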;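 note: 100 nL library stock added to about 12 µL; 100% = protein and probe without compound and 0% = probe alone; numbers are from one replicate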
Target sequence (P21700 whole entry, looked up): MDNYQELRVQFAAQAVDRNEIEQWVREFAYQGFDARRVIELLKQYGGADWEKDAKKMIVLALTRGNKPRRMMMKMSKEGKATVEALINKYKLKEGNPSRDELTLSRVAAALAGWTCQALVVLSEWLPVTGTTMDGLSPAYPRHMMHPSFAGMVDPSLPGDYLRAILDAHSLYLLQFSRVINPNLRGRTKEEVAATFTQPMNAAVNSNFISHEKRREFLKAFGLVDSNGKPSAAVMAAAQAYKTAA
An asterisk follows results filed as active; & = joins results of further samples.

SMILES,RVFV N-RNA FP
CCCCNC(=O)n1nccc1-c1sc(-c2cccs2)nc1C,105
COC(=O)C12CCC(C)(c3nc4ccccc4nc31)C2(C)C (configuration not stated),99
CCN1/C(=C2/SC(=S)N(CC(=O)O)C2=O)C=Cc2cc(OC)ccc21,97
CCOP(=O)(c1ccccc1)c1ccccc1,91
C=CCNc1ccc(C(F)(F)F)cn1,97
COc1ccccc1NC(=O)CSc1ccccc1,96
CCCC(=O)Nc1ccc2oc(-c3ccccc3Br)nc2c1,94
O=C(CSCC(=O)Nc1nc(-c2cccs2)cs1)Nc1nccs1,103
CNC(=O)COc1coc(CN2CCN(Cc3ccccc3)CC2)cc1=O,110
COC(=O)c1ccc(/C=N/NC(=O)CSc2nnc(C)n2-c2ccccc2)cc1,95
CCCN1C[C@H](CSC)C[C@@H]2c3cccc4[nH]cc(c34)C[C@H]21,98&95&99
CC1(C(=O)O)CC(C)(C(=O)O)CC(C)(C(=O)O)C1 (configuration not stated),100

Reprinted at random: 2 entries already listed.
SMILES,RVFV N-RNA FP
COC(=O)c1ccc(/C=N/NC(=O)CSc2nnc(C)n2-c2ccccc2)cc1,95
C=CCNc1ccc(C(F)(F)F)cn1,97

Remaining list, next part
SMILES,RVFV N-RNA FP
O=S(=O)(CCO/N=C/c1cccs1)c1ccc(Cl)cc1,96
CC(Oc1ccccc1)C(=O)Nc1nc2ccccc2s1 (configuration not stated),97
C=CCSc1nc(N)c(C(=O)Nc2ccccc2C)cc1C(N)=O,101
Cn1c(=NC(=O)c2nc3ccccc3s2)sc2cc(S(C)(=O)=O)ccc21,102
O=C(CCCc1ccccc1)Nc1ccc(C(=O)O)cc1,90
CCO/C([O-])=N/c1c[n+](N2CCOCC2)no1,92&106
C=C1/C(=C/C=C2/CCC[C@]3(C)[C@@H]([C@H](C)CCCC(C)C)CC[C@@H]23)C[C@@H](O)C[C@@H]1O,90
O=C(CCCN1C(=O)/C(=C\c2ccco2)SC1=S)Nc1cccnc1,97
NC(=O)CSc1nc(N)c(-c2ccccc2)c(=O)[nH]1,93
CC(C)CC(N(C)C)C1(c2ccc(Cl)cc2)CCC1 (configuration not stated),98&94&96
CCC1CSC(Nc2ccc(C)c(Cl)c2)=N1 (configuration not stated),90
CN1CCN(Cc2ccccc2)CC1,100
CCc1ccc(-c2nn(-c3ccccc3)cc2/C=C(/C#N)C(N)=O)cc1,94
CC(O)(CS(=O)(=O)c1ccc(F)cc1)C(=O)Nc1ccc(C#N)c(C(F)(F)F)c1 (configuration not stated),97&98&95
S=C(NC1CC1)N1CCc2ccccc2C1,99
COC(=O)c1cc2c(nc1SCC(=O)CC#N)CCC2,92
Cc1cc(N2CCCC2=O)cc(C)c1S(=O)(=O)NCCOc1ccccc1,107
CN(Cc1ccccc1)C(=O)c1cc2c(=O)n3ccccc3nc2n1C,105
COc1ccc(C(=O)NCCS(=O)(=O)N2CCN(C(=O)c3ccco3)CC2)cc1,96
CC1CCN(S(=O)(=O)c2ccc(C(=O)Nc3ccc4c(c3)C(=O)NC4=O)cc2)CC1,104
S=C(Nc1cccnc1)NC1CCCC1,94
CCN(CC)CCN1C(=O)C(=O)/C(=C(/O)c2ccc(OC)cc2C)C1c1ccc(F)cc1 (configuration not stated),93
O=C(Nc1ccccn1)c1ccc(Cl)s1,105
CC(CCc1ccccc1)N1CCN(c2ccccc2F)CC1 (configuration not stated),92
O=S(=O)(Cc1ccco1)Cc1nc(-c2ccc(Cl)cc2)cs1,97
Cc1cc(C)c2c(N)c(S(=O)(=O)c3ccccc3)sc2n1,102
CCCCOc1ccc(C(=O)Nc2ccc(-c3nc4ccccc4o3)c(O)c2)cc1,106
Cc1cc2oc(=O)c3c(c2cc1OCC(N)=O)CCCC3,98
Cc1ccccc1C(=O)Oc1c(-c2ccco2)oc2ccccc2c1=O,94
Cc1ccc(Cn2cccc(C(=O)N3CCc4ccccc43)c2=O)cc1,99
c1csc(-c2cc(N3CCOCC3)c3ccccc3n2)c1,97
O=C(CC1C(=O)NCCN1C(=O)Nc1ccccc1)Nc1cccc(C(F)(F)F)c1 (configuration not stated),94
COc1cc(C)c(C)cc1S(=O)(=O)N1CCCCC1c1cccnc1 (configuration not stated),97
CC1CCCCN1S(=O)(=O)c1ccc(C(=O)Nc2nnc(C3CC3)o2)cc1 (configuration not stated),98
COc1ccc(CN2CCSCC2)c(OC)c1OC,96
CCN(CC)CCN(C)C1CCC(C)CC1 (configuration not stated),94
COC(=O)c1cc(NC(=O)CSC2=NCCS2)cc(C(=O)OC)c1,99
Cc1ccc(N(CC(=O)O)S(=O)(=O)c2ccccc2)cc1,86
CC(C)=CCCC(C)CN1CCC(O)CC1 (configuration not stated),97
CCOC(=O)C1CCN(C(c2ccncc2)c2c(O)cc(C)n(Cc3cccnc3)c2=O)CC1 (configuration not stated),92
c1ccc2c(c1)CCC[C@H]2Nc1nc2ccccc2[nH]1,91
NC(=O)CCCCC1CCSS1 (configuration not stated),99
O=C(Oc1ccccc1)c1cccc(COC(=O)c2cnccn2)c1,96
CCC(=O)N1c2ccccc2-c2nnc(SC)nc2OC1c1ccsc1 (configuration not stated),90
CCOC(=O)/C(C#N)=C/N1CCCC1c1cccs1 (configuration not stated),92
COc1cc2c(cc1OC)C(COc1ccc3c(C)cc(=O)oc3c1)N(C(=O)c1ccco1)CC2 (configuration not stated),94
CS(=O)(=O)N/N=C/C=C/c1ccccc1,101
CCCN(CCC)c1nc(N2CCCC2)nc(N2CCCC2)n1,100
O=S1(=O)NC(=NC2CCCCCC2)c2ccccc21,96
NC(=O)c1oc2ccccc2c1NC(=O)CN1C(=O)c2ccccc2C1=O,92
CCN(CC)S(=O)(=O)c1ccc(C(=O)NNc2nc3c(OC)ccc(OC)c3s2)cc1,88
O=C1CCC(=O)N1CN(CN1C(=O)CCC1=O)C1CCCCC1,88
Cc1nn(S(=O)(=O)c2ccccc2)c(C)c1S(=O)(=O)N1CCCCC1,99
COc1nc(N)nc2c1ncn2C1O[C@H](CO)[C@@H](O)[C@@H]1O (some centres not stated),99
NC(=O)CSCc1c(Cl)cccc1Cl,99
Cc1cccc(/C=C/c2ccccc2)n1,92
COc1ccc(C(=O)OCC2CC2)cc1Br,95
CN(C(=O)Nc1cccc(C(F)(F)F)c1)C1CCCCC1,92
O=C(c1ccco1)N(Cc1ccco1)c1ccc(O)cc1,92
Cc1cc(/C=C2\SC(=S)N(Cc3ccco3)C2=O)c(C)n1-c1ccccc1,102

Next entries
SMILES,RVFV N-RNA FP
C=CCn1c(C2CC(=O)N(c3cc(Cl)ccc3OC)C2)nc2ccccc21 (configuration not stated),95
Cc1nc2ccccc2c(=O)n1/N=C/c1ccccc1O,108
O=C(NCO)c1ccccc1Cl,90
CCn1c(=NC(=O)C(C)C)sc2cc(Br)ccc21,96
C=CCN1C(=O)c2oc3ccccc3c(=O)c2C1c1ccccc1 (configuration not stated),93
O=C(O)COCC(=O)Nc1ccc2c(c1)OCCCO2,100
C=C1SC(Nc2cc(C)cc(C)c2)=NC1(C)C,98
Nn1c(SCC(=O)N2CCCc3ccccc32)nncc1=O,96
CCN(CC)CCOC(=O)c1cc(Cl)c(N)cc1OC,90
N#CCSC1=NS(=O)(=O)c2ccccc2N1,89
COc1cccc2sc(N3CCCC3)nc12,91
O=C(CSc1nnc(-c2ccco2)o1)NCC(=O)c1ccccc1,98
COc1cccc(NC(=O)Cn2ccc3c(OC)cccc3c2=O)c1,97
COc1ccc(N2C(=O)CCC2(C(N)=O)c2ccccc2)cc1 (configuration not stated),89
C/C=C/C(=O)Nc1ccccc1Br,96
Cc1nc(/C(N)=N/OC(=O)c2cccc(Cl)c2)c(C(F)(F)F)o1,93
CC(NC(=O)c1cnc2n(c1=O)CCS2)C12CC3CC(CC(C3)C1)C2 (configuration not stated),96
Cc1nc(C)c(CCNC(=O)C2CCCCC2)s1,97
N#C/C(=C\c1ccc2c(c1)OCO2)C(=O)N1CCCC1,109
CCC(=O)Nc1ccc(C(=O)OCc2ccccc2)cc1,89
COc1cccc2cc(-c3ccc(F)cc3)c(=O)oc12,91
CC(C)(C)C(=O)/C=C/c1ccco1,108
Cc1cc(C)n(-c2nnc3n2N=C(c2c[nH]c4ccccc24)CS3)n1,90
O=S(=O)(NCc1ccc2c(c1)CCO2)c1ccc(C(F)(F)F)cc1,90
CCOCC(=O)NCc1ccccc1Cl,101
C=CCn1c(=O)c(C(=O)NC)c(O)c2ccccc21,88
CSC(SC)=C1C(=O)OC(C)(C)OC1=O,102
Clc1ccc2c(c1)N=C(N1CCNCC1)c1ccccc1N2,96
O=C(NCC1CCCO1)c1cc2c(=O)n3ccccc3nc2s1 (configuration not stated),97
O=C(CSc1ccccc1)N/N=C/c1ccccc1O,89
COc1cccc2c1OCc1sc3[nH]c(=S)[nH]c(=O)c3c1-2,87
Cc1noc(C)c1NC(=O)NC(c1ccccc1)c1ccccc1,95
COc1ccc(OCC(=O)N=Nc2c(O)n(C)c3ccccc23)cc1,84
CC(CC(N)=O)c1ccccc1 (configuration not stated),89
N#CC1=C(N)Oc2cc(O)ccc2C1c1ccccc1 (configuration not stated),102
CC(=O)N1CCCc2ccc(NC(=O)C(C)C)cc21,90

Of the compounds above, these contain a COOH group.
SMILES,RVFV N-RNA FP
CCN1/C(=C2/SC(=S)N(CC(=O)O)C2=O)C=Cc2cc(OC)ccc21,97
CC1(C(=O)O)CC(C)(C(=O)O)CC(C)(C(=O)O)C1 (configuration not stated),100
O=C(CCCc1ccccc1)Nc1ccc(C(=O)O)cc1,90
Cc1ccc(N(CC(=O)O)S(=O)(=O)c2ccccc2)cc1,86
O=C(O)COCC(=O)Nc1ccc2c(c1)OCCCO2,100

Additional structures
SMILES,RVFV N-RNA FP
Cc1nc(-c2ccccc2)cc(N2CCCC2)n1,99
COc1ccc(NC(=O)c2ccco2)c(NC(=O)Cc2cccs2)c1,95
CCN1CCc2c(OCC(=O)Nc3ccc(OC)cc3)cccc2C1=O,103
CCCCS(=O)(=O)c1sc2nc3c(cc2c1N)CCCC3,99
COC(C(=O)NCc1ccccc1C)c1ccccc1 (configuration not stated),91
OC[C@H]1O[C@@H](n2cnc3cncnc32)[C@H](O)[C@@H]1O,92
O=C(CSc1nc2sc3c(c2c(=O)n1Cc1ccco1)CCC3)Nc1nccs1,93
CCC(C)Oc1c(Cl)cc(C#N)cc1OC (configuration not stated),100
Cc1onc(-c2ccccc2Cl)c1C(=O)ONC1=NCCCC1,88
CC(C)(CC(=O)O)CC(=O)N1CCN(c2nc(-c3ccccc3)ns2)CC1,97
CSc1nnc(-c2nnc(SC)n2-c2ccccc2)n1-c1ccccc1,97
NCCCCN=C(N)N,103

Two consecutive records from above:
SMILES,RVFV N-RNA FP
COc1ccc(NC(=O)c2ccco2)c(NC(=O)Cc2cccs2)c1,95
CCN1CCc2c(OCC(=O)Nc3ccc(OC)cc3)cccc2C1=O,103

Next part
SMILES,RVFV N-RNA FP
CCCCc1c(O)nc(Nc2nc(C)c3cc(C)c(C)cc3n2)[nH]c1=O,89
COc1ccccc1C(=O)Nc1ccc(CN2CCCCC2)cc1,111
CCOC(=O)c1c(C)oc2ccc(O)cc12,91
O=C(CC1C(=O)N(Cc2ccc(F)cc2)C(=S)N1Cc1ccco1)Nc1ccc(Cl)cc1 (configuration not stated),87
N#Cc1cnc(Sc2nnc(-c3cccs3)n2-c2ccc(Cl)cc2)nc1N,96
C/C(=C\C(=O)OCCCCCCCCC(=O)O)C[C@@H]1OC[C@H](C[C@@H]2O[C@H]2[C@@H](C)[C@H](C)O)[C@@H](O)[C@H]1O,95
CCCCCSc1ncnc2nc[nH]c12,92
O=C(COc1ccc(C2=NN(C(=O)c3cccs3)C(c3ccco3)C2)cc1)N1CCCCC1 (configuration not stated),93
Cc1c(OCC(F)(F)F)ccnc1CS(=O)c1nc2ccccc2[nH]1 (configuration not stated),96&100&98
CC(C)(C)C(=O)OC[C@H]1O[C@@H](n2cnc3c(=O)[nH]cnc32)C[C@@H]1O,90
C=CC[C@@H]1C=C(C)C[C@H](C)C[C@H](OC)[C@H]2O[C@@](O)(C(=O)C(=O)N3CCCC[C@H]3C(=O)O[C@H](/C(C)=C/[C@@H]3CC[C@@H](O)[C@H](OC)C3)[C@H](C)[C@@H](O)CC1=O)[C@H](C)C[C@@H]2OC,99
CN(C)/C=C(\Sc1ncccn1)C(=O)c1ccc(Cl)cc1,91
FC(F)Sc1nnc(-c2ccccc2)n1-c1ccccc1,94
O=C(c1cc2ccccc2oc1=O)N1CCCc2ccccc21,88
Cc1ccc(S(=O)(=O)NC(=O)NN2CC3CCCC3C2)cc1 (configuration not stated),98
CC1(C(=O)Nc2cccc(Br)c2)CC(=O)N=C2C=CC=CN21 (configuration not stated),96
O=C(Nc1cccc(OC(=O)N2CCOCC2)c1)N1CCCCC1,93
O=S(=O)(c1ccc(-c2ccno2)s1)N1CCCC1,93

Not all compounds are listed. The share of hits here may be higher or lower than overall.
